Screening results (PubChem)
NPYLR7 ag: activates Aedes aegypti NPYLR7 receptor. AID 1259423. activation, % at 10 µM. hit rate 0.15% among 270,000. HEK293T NPYLR7/Galpha15, GCaMP6s calcium fluorescence; in the data active means activation above about 40%;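 further: 0% = vehicle and 100% = reference agonist at the receptor; some compounds past the cut are filed as inactive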
NPYLR7 ag max-min: recorded beside NPYLR7 ag, whose call it bears; activation, %; measured here: Max-Min RFU normalised activation; some inactives read as strong as hits;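 span of the calcium signal over five minutes; 0% = vehicle and 100% = native peptide agonist; compound fluorescence can raise it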
Starred values were filed as active, the others as inactive. Some of the compounds tested; rates above refer to the full screens.

The line under a structure holds: NPYLR7 ag | NPYLR7 ag max-min
CCCCC(NC(=O)C1CCC(O)CC1)c1cccnc1 (stereo not drawn)
  6.9 | -0.8
Cc1cc(C(=O)N2CCOC(c3ccccc3)C2)co1 (stereo not drawn)
  5.6 | 13.6
O=c1cc(CO)oc(CN2CCCCC2)c1O
  2.7 | 0.7
Cc1ccsc1CN(Cc1ccc(F)cc1)C(=O)CN(CC1CCCO1)C(=O)c1cccc(Cl)c1 (stereo not drawn)
  9.8 | 11.3
CCOC(=O)C1=C(C)N=c2s/c(=C\c3ccc(OC)cc3)c(=O)n2C1c1cc(OC)ccc1OC (stereo not drawn)
  23.9 | 41.0
Cn1ccnc1C(NC(=O)C1CCCO1)c1cccc(F)c1 (stereo not drawn)
  0.9 | 0.6
Cc1noc(C)c1CNC(C)(C(N)=O)c1cccc(Cl)c1 (stereo not drawn)
  6.1 | 4.7
CC(C)(C)C(=O)Nc1nnc(SCc2ccccc2C#N)s1
  11.0 | 24.9
CC(=NNc1nncc2ccccc12)c1cc2ccccc2o1
  5.7 | 5.0
OC(c1ccc2c(c1)CN(C/C=C/c1ccco1)CCO2)C1CCCCC1 (stereo not drawn)
  6.4 | 4.7
O=P(c1ccccc1)(c1nc2ccccc2s1)N1CCCCC1 (stereo not drawn)
  4.5 | 3.1
Cc1ccc(C2SCCN2C(=O)CCC2CCCC2)s1 (stereo not drawn)
  0.0 | 5.1
CCC(=O)Nc1c(-c2ccc(C)cc2)nc2cc(C)ccn12
  3.1 | 11.8
CCOC(=O)C1=NNC(C(=O)c2ccc(Cl)cc2)C1c1ccccc1 (stereo not drawn)
  12.8 | 9.4
COc1ccc(N2CCN(C(=O)c3cccnc3SCc3ccc(Cl)cc3)CC2)cc1
  0.1 | 0.1
COc1ccc(N2C(=O)CC(Sc3nc4c(cc3C#N)CCCCCC4)C2=O)cc1 (stereo not drawn)
  -8.5 | -11.1
O=C(O)Cc1cc2ccccc2nc1C(=O)O
  -12.1 | -17.7
FC(F)(F)c1ncccc1COc1ccc2c(-c3ccccc3)noc2n1
  -4.5 | -6.0
CCn1ncc(C(=O)NCc2nccn2Cc2ccccc2)c1C
  4.4 | 3.5
CCOc1cc(S(=O)(=O)NC2CC(C)(C)NC(C)(C)C2)c(C)cc1C
  10.2 | 6.9
O=C(NCc1cccc(Cl)c1)c1cc(N2CCOCC2)nc2ccccc12
  23.8 | 33.0
O=C(c1cccs1)N1CCc2cc(S(=O)(=O)N3CCCCC3)ccc21
  1.8 | 1.2
O=C1OC(c2ccccc2)C(O)(c2ccccc2)C12CCCCC2 (stereo not drawn)
  -15.5 | -21.0
CN1OC(C)(CC(=O)NCc2nccs2)N=C1c1cccc(Br)c1 (stereo not drawn)
  7.6 | 4.0
CCOc1ccccc1N1C(=O)CSC1c1cccc(NC(=O)c2cccc(OC)c2)c1 (stereo not drawn)
  3.8 | 7.6
Cc1cc(C(=O)N2CCN(S(=O)(=O)c3ccc(F)c(Cl)c3)CC2)c2ccccc2n1
  2.3 | 1.7
CCCNC(=O)C(NC(=O)c1cccc(OC)c1)C1CCN(C(=O)c2ccccc2OC)CC1 (stereo not drawn)
  4.7 | 9.9
CC(OC(=O)c1nc(-c2ccccc2)n(-c2ccccc2)n1)c1nc(N)nc(N(C)C)n1 (stereo not drawn)
  4.4 | 9.5
Cn1c(=O)c2c(ncn2CC(=O)c2ccc(CCNS(C)(=O)=O)cc2)n(C)c1=O
  2.8 | -0.4
Cc1cc(C)n(-c2cncc(NCc3ccnc(N(C)C)c3)n2)n1
  9.1 | 7.8
COc1ccc(-c2cn3c(NC(=O)c4ccncc4)c(C)nc3cn2)cc1
  -2.6 | -8.0
C=CCN(C(=O)C1CCN(CC(F)(F)F)CC1)c1ccccc1
  6.2 | 3.7
CC(C)Cc1nnc2sc(C3CCOC3)nn12 (stereo not drawn)
  16.7 | 13.0
COc1cccc(-c2cnnc(NCCCN3CCOCC3)n2)c1
  3.5 | -0.6
Cc1cc(NC(=O)CSc2nnc(-c3ccco3)n2C)n(C)n1
  13.1 | 7.4
Cc1nnc(NC(=O)CCN2C(=O)NC(C)(C)C2=O)s1
  -0.1 | 2.9
CCCCCN(Cc1nc(C(=O)OCC)cs1)C(=O)Nc1ccc(Cl)cc1
  -3.3 | 3.0
CC(C)N1CC(OCc2ccc(F)cc2)CN(C(=O)c2ccc(N3CCOCC3)cc2)CC1=O (stereo not drawn)
  15.8 | 7.3
CCN(CC)S(=O)(=O)c1ccc2c(c1)nc(SCC(=O)N1CCOCC1)n2C(C)C
  3.8 | 0.2
Cc1ccc(F)cc1CC(=O)NC1C=CS(=O)(=O)C1 (stereo not drawn)
  8.1 | 5.9
Cc1cc(C(=O)CSc2nnc(NC3CC3)s2)c(C)n1C
  6.9 | 10.5
CC(O)CNC(=O)c1c(O)nc2sccn2c1=O (stereo not drawn)
  3.5 | 5.2
O=C(c1ccco1)N1CCCC(OCc2cc(F)ccc2F)C1 (stereo not drawn)
  -4.9 | -2.6
O=C(c1cc(C2CC2)[nH]n1)N(Cc1ccccc1)C1CCS(=O)(=O)C1 (stereo not drawn)
  19.7 | 11.7
COC(=O)C1CN(C)C(=O)CN1S(=O)(=O)c1ccc([N+](=O)[O-])cc1 (stereo not drawn)
  10.4 | 3.8
CC1(Cc2ccc3c(c2)OCO3)C(=O)Nc2c(Cl)cccc21 (stereo not drawn)
  1.1 | 1.1
O=C(COc1coc(CN2CCc3ccccc32)cc1=O)Nc1ccccc1
  10.3 | 9.3
Cc1cc2c(SCC(=O)Nc3ccccc3F)ncnc2s1
  4.7 | 0.1
C=CCN(Cc1ccccc1C)C(=O)CCc1ccccc1O
  7.6 | 8.3
CC(C)c1cc(C2CCN(C(=O)Cn3cnc4ccccc43)CC2)[nH]n1
  2.0 | 2.5
CC(C)NCc1csc(COc2cccc(Cl)c2)n1
  11.6 | 6.3
Cn1cc(CN2CCC(Oc3ccc(C(=O)N4CCCC4)cc3)CC2)c2ccccc21
  3.7 | 0.4
O=C(Cc1cc(-c2ccc3c(c2)OCO3)on1)NC1=NCCS1
  6.7 | 8.1
O=C(CSc1nnc(-c2ccc(Cl)cc2)n1-c1ccccc1)N/N=C\c1c(F)cccc1Cl
  -3.9 | -8.5
C=CCOc1ccc(C=C2C(=O)NC(=O)NC2=O)cc1OC
  7.1 | 4.5
CCN(C(=O)Nc1cccc(C(=O)NC)n1)C(C)c1cccnc1 (stereo not drawn)
  2.7 | 3.3
C[C@@H]1CN(C2(C(=O)N[C@@H]3CNC[C@H]3O)Cc3ccccc3C2)C[C@H](C)O1
  2.6 | 0.1
CCOC(=O)C(C)N1C(=O)C2CC=C(Cl)CC2C1=O (stereo not drawn)
  3.9 | -1.0
Cc1ccc(-n2nc(C)c(CCC(=O)N3C[C@@H](C)O[C@@H](C)C3)c2C)cc1Cl
  -11.7 | -13.7
Cn1c(=O)[nH]c(=O)c2c1nc1n2CCCN1c1ccccc1O
  4.0 | 1.7

Among those listed so far, 4 contain a thiophene ring, fused or not.
The line under a structure holds: NPYLR7 ag | NPYLR7 ag max-min
Cc1ccsc1CN(Cc1ccc(F)cc1)C(=O)CN(CC1CCCO1)C(=O)c1cccc(Cl)c1 (stereo not drawn)
  9.8 | 11.3
Cc1ccc(C2SCCN2C(=O)CCC2CCCC2)s1 (stereo not drawn)
  0.0 | 5.1
O=C(c1cccs1)N1CCc2cc(S(=O)(=O)N3CCCCC3)ccc21
  1.8 | 1.2
Cc1cc2c(SCC(=O)Nc3ccccc3F)ncnc2s1
  4.7 | 0.1

Other structures:
The line under a structure holds: NPYLR7 ag | NPYLR7 ag max-min
CC(C)(C)N1CCC(CN)C1 (stereo not drawn)
  -11.0 | -16.2
CC1CC1c1ccc(C=CC(=O)O)o1 (stereo not drawn)
  3.0 | 8.2
O=c1cc(N2CCC3(CC2)OCCO3)[nH]c(=O)n1C1CCCCC1
  0.3 | 7.9
COc1cc2nc(-c3ccco3)oc(=O)c2cc1OC
  22.9 | 36.3
c1csc(CNCc2cccs2)c1
  2.1 | 5.7
COc1cccc(Oc2cnn(-c3ccccc3Cl)c(=O)c2Nc2cccc(C(=O)NCc3ccc4c(c3)OCO4)c2)c1
  -6.0 | -4.5
COc1ccc(-c2noc(-c3c(SC)nn(CC(=O)Nc4cccc(OC)c4)c3N)n2)cc1
  3.0 | -4.8
COc1ccc2[nH]c3c(c2c1)CCN(C(=O)c1ccc(C(F)(F)F)c(F)c1)C3c1ccc(C(F)(F)F)cc1 (stereo not drawn)
  20.6 | 7.1
C#CCOCC(O)CN(Cc1ccccc1Cl)CC1CC(c2ccc3c(c2)OCO3)=NO1 (stereo not drawn)
  -0.1 | 0.3
COc1ccccc1N1C(=O)CCC1(C#N)c1ccc(OCc2ccccc2)cc1 (stereo not drawn)
  3.8 | 1.0
CC(=O)C1=C(c2ccc(F)cc2)N(C(C)=O)n2c(nnc2-c2ccc(C)cc2)S1
  3.0 | 1.2
CC(C)c1cccc(Nc2nnc(C(O)c3ccccc3)s2)c1 (stereo not drawn)
  7.1 | 6.2
CCN(CC)S(=O)(=O)c1cccc(-c2nnc3n2N=C2CCCCC2S3)c1 (stereo not drawn)
  -4.4 | -7.2
CCn1c(CCC(=O)NC(C)c2nc3ccccc3[nH]2)nc2cc(S(=O)(=O)N(C)C)ccc21 (stereo not drawn)
  1.9 | 8.4
CCc1ccc(C(=O)C(C)OC(=O)C(C(C)C)N2CCCC2)cc1 (stereo not drawn)
  -18.7 | -16.7
CCc1[nH]c2c(CNC(=O)c3nc(C)oc3C)cc(F)cc2c1C
  4.2 | 2.4
Cc1ccc(CNC2CCN(S(C)(=O)=O)CC2)c(C)c1
  4.7 | 0.5
Cc1ccc(N(CCCCN2C(=O)c3ccccc3C2=O)C(=O)/C=C/c2ccccc2Cl)cc1
  -1.9 | -7.4
CC(=O)c1ccccc1C(=O)NCC1CCN(Cc2cccnc2)C1 (stereo not drawn)
  1.3 | 0.5
COc1cc(OC)c(C2SCCN2S(=O)(=O)c2ccc3ccccc3c2)cc1OC (stereo not drawn)
  -7.1 | -7.4
CC(C(=O)Nc1ccc(Br)cc1F)N1CCOCC1 (stereo not drawn)
  0.9 | 3.3
COc1ccc(OC)c2nc(N(C)C)c(CN(CCCN3CCCC3=O)C(=O)c3cncs3)cc12
  26.6 | 3.9
CC(=O)N1CCOC(CNC(=O)COc2cccnc2)C1 (stereo not drawn)
  4.4 | 2.5
COc1ccc(CCNC(=O)c2cccnc2N2CCN(C(=O)c3ccc(N(C)C)cc3)CC2)cc1OC
  22.3 | 9.7
CC(=O)c1[nH]c(C)c(C(=O)N2CCCCC2CCc2ccccn2)c1C (stereo not drawn)
  12.3 | 4.7
Brc1ccc(Oc2ccc(CNC3CC3)cc2)cc1
  -0.2 | 0.2
CCSCCNc1nccc(-c2cn(C)nc2C)n1
  0.9 | 0.8
COc1ccc(OC)c(S(=O)(=O)Nc2ccc(-c3ccc(N4CCCCC4)nn3)cc2)c1
  1.3 | 1.1
O=C(CSc1nnnn1C1CC1)N1CCC2CCCCC2C1 (stereo not drawn)
  16.3 | 15.0
CCOCCn1cc(C2CCN(C(=O)C(OC(C)=O)c3ccccc3)CC2)c2ccccc21 (stereo not drawn)
  4.5 | 5.3
CN(C)CCCN(CCCN(C)C)Cc1cc(Br)cs1
  -2.4 | -2.8
Cc1ccc(OCC(=O)N=Nc2c(O)[nH]c3c(Br)cc(C)cc23)c(Br)c1
  1.7 | -2.3
C=C(C)COc1cccc(C(=O)N2CCCN(C(=O)C3CCCO3)CC2)c1 (stereo not drawn)
  -0.5 | -10.3
CSc1nnc(C)c2cnn(-c3ccc(F)cc3)c12
  -12.5 | -18.9
C=c1nc(C)sc1=C1NN=C(SCC2CCCCO2)O1 (stereo not drawn)
  3.6 | 5.7
Fc1cccc(F)c1-c1nc(CSc2ccccc2Cl)cs1
  19.9 | 29.1
CC(C)CN(Cc1nccn1Cc1ccccc1F)C(=O)c1ccccc1F
  5.2 | 13.2
CN(CC(=O)OC1CCCCCCC1)S(=O)(=O)c1cccnc1
  4.2 | 2.3
COC(=O)C1CN(CCS(=O)c2ccccc2)CCO1 (stereo not drawn)
  -2.7 | -7.4
CCOC(=O)C1CCCN(C(=O)c2cc(-c3ccccc3OC)nc3cc(-c4ccccc4)nn23)C1 (stereo not drawn)
  12.6 | 4.0
O=C(Oc1ccc2[nH]cc(CCN3C(=O)c4ccccc4C3=O)c2c1)c1ccco1
  10.0 | 8.5
O=C(Nc1nnc(SCc2cccc(OC(F)(F)F)c2)s1)c1ccccc1Cl
  4.2 | 8.6
CC(C)CCNC(=O)C1CC(=O)N(C2CCCC2)C1 (stereo not drawn)
  5.6 | 3.3
CCNC(=O)N1CC(C)(C)SC12C(=O)N(CC)c1ccccc12 (stereo not drawn)
  9.8 | 7.9
COC(=O)c1ccc(C2Nc3c([N+](=O)[O-])cc(C)c(C)c3C3C=CCC32)cc1 (stereo not drawn)
  -3.1 | 8.6
COc1ccc(CN(C(=O)c2ccc(Cl)c(Cl)c2)C(C)C)cc1OS(C)(=O)=O
  -11.7 | -15.5
Cc1cc2nnc(SCC(=O)C(C)(C)C)n2c(C)n1
  -2.5 | -3.2
CCc1nc2ccc(C(=O)Nc3cccc(NS(C)(=O)=O)c3)cn2c1N(C)C(=O)c1cccc(OC)c1
  8.9 | 17.5
CCn1c(C(=O)NC2CC2)cc2sc(Cl)cc21
  10.7 | 11.1

Two records picked at random from the list so far, as already listed:
The line under a structure holds: NPYLR7 ag | NPYLR7 ag max-min
Cc1ccc(OCC(=O)N=Nc2c(O)[nH]c3c(Br)cc(C)cc23)c(Br)c1
  1.7 | -2.3
C=c1nc(C)sc1=C1NN=C(SCC2CCCCO2)O1 (stereo not drawn)
  3.6 | 5.7

A second format for part of the listing above:
SMILES	NPYLR7 ag	NPYLR7 ag max-min
CCOC(=O)C1CCCN(C(=O)c2cc(-c3ccccc3OC)nc3cc(-c4ccccc4)nn23)C1 (stereo not drawn)	12.6	4.0
COc1ccc(CN(C(=O)c2ccc(Cl)c(Cl)c2)C(C)C)cc1OS(C)(=O)=O	-11.7	-15.5
Cc1cc2nnc(SCC(=O)C(C)(C)C)n2c(C)n1	-2.5	-3.2
COC(=O)C1CN(CCS(=O)c2ccccc2)CCO1 (stereo not drawn)	-2.7	-7.4
